# Screening results (PubChem BioAssay)
# Bead autofluor – compound fluorescence in toxin protease inhibitor counterscreen | compound autofluorescence counterscreen, microsphere flow cytometry; active compounds read high | fluorescence intensity (test concentration not listed) | hit rate 3.1% among 360,000;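 active means at least 3 SD above the mean of all compounds, about 16000 in these data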;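 further: 100 nL of 1 mM stock went into each well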
# Active calls of the source: *. Some of the compounds tested; count on the stated rates, not on these rows.
SMILES,Bead autofluor
CC1(C(=O)NCc2ccccc2Br)CCN1Cc1ccc(-c2ccccn2)cc1 (centres undefined),3786
CCOC(=O)[C@]12CCC=C1N(Cc1ccccc1)C(=O)[C@H](CC(=O)N1CCN(C(=O)c3ccco3)CC1)C2,4312
O=C1OC(c2ccc(F)cc2)CC1CN1CCOCC1 (centres undefined),5604
N#Cc1cccc(C=C(C(=O)c2ccccc2)c2ccccc2)c1,4856
CCC1Cc2[nH][nH]c(=O)c2C(CC)O1 (centres undefined),6391
O=C1c2ccccc2C(=O)N1CC(O)COc1cccc2ccccc12 (centres undefined),4591
CCOC(=O)[C@]12CCC=C1N(Cc1ccco1)C(=O)[C@H](CC(=O)NCCCN1CCCC1=O)C2,5328
CCOc1ccccc1NC(=O)c1cc2ccccc2o1,3566
CC1Cc2ccccc2N1C(=O)CN1CCN(S(=O)(=O)c2ccc3c(c2)OCCCO3)CC1 (centres undefined),3274
CCOC(=O)[C@]12CCC=C1N(Cc1ccc(Cl)cc1Cl)C(=O)[C@H](CC(=O)NCCc1ccccc1OC)C2,5811
O=C1OC(O)c2cccc3cccc1c23 (centres undefined),3621
COc1ccc(CC(N)c2csc(NC(=O)c3cc(C(C)(C)C)oc3C)n2)cc1 (centres undefined),3802
COc1ccc(C(O)c2nc(-c3cccc(F)c3)cs2)cc1 (centres undefined),3083
Cc1ccc([C@H]2C[C@@H](n3cc(-c4ccc(F)cc4)nn3)[C@H](O)CN2C(=O)c2cccs2)cc1,3491
c1ccc(C[C@H]2CN=C(Nc3ccccc3)N2CC2CCCC2)cc1,4445
CCOC(=O)[C@]12CCC=C1N(CCC1=CCCCC1)C(=O)[C@H](CC(=O)N1CCCCC1)C2,6248
c1ccc(SC23CCCCN(CCC2)[C@]32CO2)cc1 (some centres undefined),5035
COc1ccc(OCC(=O)N2CCN(S(=O)(=O)c3ccc4c(c3)OCCO4)CC2)cc1,3062
CC1(C(=O)NS(=O)(=O)c2ccccc2)CCN1C(=O)C/C=C/c1ccccc1 (centres undefined),3603
O=C(O)c1cnc2ccc(Cl)cc2n1,3078
Cn1cc(Cc2ccc(C(=O)N3CCCCC3)cn2)c2ccccc21,3747
COC(=O)C1=C(c2ccc(OCc3ccccc3)cc2)C[C@@H]2CC[C@H]1N2C(=O)NCc1ccc(C(C)(C)C)cc1,3548
O=C(NCC(=O)N1CCN(Cc2c(F)cccc2Cl)CC1)c1cccs1,3990
CCc1nc2ccc(C(=O)N(C)Cc3ccccc3)cn2c1N(CC)CCN(C)C,3492
Cc1cc(C)c2c(CN3CCN(c4ccccc4F)CC3)cc(=O)oc2c1,4197
CCOC(=O)C1=CCN(S(=O)(=O)c2ccc(C)cc2)C1c1cccc(Br)c1 (centres undefined),4553
O=C1NC[C@@H](Cc2ccc(O)cc2)N(CCCCC2CCCCC2)C1=O,3874
Fc1cccc(Cc2c(-c3ccccc3)nc3ccc(Br)cn23)c1,6606
CC(=O)NCCNC(=O)C1(C)Cc2c(-c3ccc(C(N)=O)cc3)ccnc2O1 (centres undefined),2918
N#CC(C#N)=NNc1ccc2cn[nH]c2c1,4179
Cn1c(=O)c2c(-c3ccccc3)n(-c3ccccc3)cc2n(C)c1=O,3866
CCNC(=O)C1CCCN(Cc2ccc(C)c3ccccc23)CC1 (centres undefined),3520
CC(=O)c1cccc2c1OC(C)C(=O)N2Cc1ccc(Cl)cc1 (centres undefined),3657
CCc1nc2c(OCCOc3ccccc3)cccn2c1N(C)C(=O)c1ccc(OC)cc1,3964
COC(=O)C[C@@H]1C[C@H]2c3cc(NS(C)(=O)=O)ccc3O[C@H]2[C@H](CO)O1,3398
Cc1ccc(NC(=O)CN(C)C(=O)c2cccc(S(=O)(=O)N3CCc4ccccc4C3)c2)cc1,4323
O=C(O)c1cc2c(ncc3c(=O)n(-c4ccccc4)[nH]c32)s1,5713
Cc1cc(C)cc(CC(=O)N2CCC2(C)C(=O)NS(=O)(=O)c2cccc(F)c2)c1 (centres undefined),3805
C[C@H](CO)N1C[C@H](C)[C@@H](CN(C)C(=O)CCCN(C)C)OCc2cn(nn2)CCCC1=O,2927
O=C(c1ccc(N2C(=O)c3ccccc3C2=O)cc1)N1CCN(S(=O)(=O)c2ccccc2F)CC1,3938
O=C1NC[C@@H](CCCCN2CCN(CCc3ccc(O)cc3)C(=O)C2=O)N(CCC2CCCCC2)C1=O,5812
COc1cc(/C=N/NC(=O)c2nnn(-c3nonc3N)c2C)ccc1OCc1ccc(Cl)cc1,3391
Cc1cccc(S(=O)(=O)N(C)C[C@H]2OCc3cnnn3CCCC(=O)N([C@@H](C)CO)C[C@H]2C)c1,3657
COc1ccc([C@H]2N[C@]3(CCCN(Cc4ccccc4)C3=O)[C@H]3C(=O)N(C)C(=O)[C@@H]23)cc1,2963
CN[C@H](C)C(=O)NC[C@H]1O[C@@H](n2ccc(N)nc2=O)[C@H](O)[C@@H]1O,2893
Cc1cc(C(=O)N2CCC2(C)C(=O)Nc2cccc3ccccc23)nn1C (centres undefined),3999
C=C1C(=O)[C@]23C[C@H]1CCC2[C@]1(C)C(=O)CC[C@@](C)(C(=O)O)C1C[C@@H]3O (some centres undefined),6289
O=C(c1cccs1)N1C[C@@H](O)[C@H](n2cc(-c3ccc(F)cc3)nn2)C[C@@H]1c1ccc(Cl)cc1,2938

# Part of the list above, bar-delimited.
Compound | Bead autofluor
O=C1c2ccccc2C(=O)N1CC(O)COc1cccc2ccccc12 (centres undefined) | 4591
CCOC(=O)[C@]12CCC=C1N(Cc1ccco1)C(=O)[C@H](CC(=O)NCCCN1CCCC1=O)C2 | 5328

# The list goes on:
SMILES,Bead autofluor
Cc1ccccc1NC(=O)Cc1nc(COC(=O)c2nccnc2N)cs1,5784
COc1ccc(S(=O)(=O)N2CCCCC2c2cc(C(=O)NC(C)C)no2)cc1 (centres undefined),3659
COC(=O)c1ccc2nc(-c3ccc(Cl)cc3)c(CC3CCCCC3)n2c1,5130
CCNC(=O)C1CCCN(C(=O)c2ccccc2OC(F)(F)F)CC1 (centres undefined),3975
O=[N+]([O-])c1ccc(N2CCN(Cc3ccccc3)CC2)c2c1no[n+]2[O-],5852
COc1ccc([C@H]2N[C@]3(CCCN(Cc4ccc(Cl)cc4)C3=O)[C@H]3C(=O)N(Cc4ccccc4)C(=O)[C@@H]23)cc1,3716
CC(=O)Nc1ccc(CN(C)c2c(C)nc3ccc(C(=O)N4CCN(c5ccccc5)CC4)cn23)cc1,3493
O=C(NC1CCCCC1)N1Cc2cc(N3CCOCC3)ccc2-n2nncc2C1,4513
COc1ccc(C(C)(O)c2nc(-c3cccc(C(=O)O)c3)cs2)cc1 (centres undefined),3020
O=C1NC(=O)C2C3OC(C(Br)C3Br)C12 (centres undefined),4014
CC(O)(c1ccc(F)c(F)c1)c1nc(-c2ccc3ccccc3c2)cs1 (centres undefined),3862
CN1CCN(C(=O)c2cc3c(c(-c4cccc(-c5cc6ccccc6o5)c4)n2)[C@@H](CCO)N(S(=O)C(C)(C)C)C3)CC1 (some centres undefined),6026
Cc1ccc([C@H]2N[C@]3(CCCN(Cc4ccc(C(F)(F)F)cc4)C3=O)[C@H]3C(=O)N(C)C(=O)[C@@H]23)cc1,3879
Cc1cccc(N(CC(=O)N2CCCC2)S(C)(=O)=O)c1C,3532
Cc1ccc(CN2CCN(C(=O)/C=C/[C@H]3O[C@@H](n4cc(C)c(=O)[nH]c4=O)C[C@@H]3O)CC2)cc1,5652
O=C(Nc1ccc(F)cc1)N1Cc2ccccc2-n2nncc2C1,3610
COc1ccc(S(=O)(=O)NC(=O)C2(C)CCN2C(=O)c2cccc(F)c2)cc1 (centres undefined),3679
O=C1NN(c2ccccc2)C(=O)C1=Cc1ccccc1,3866
Cc1ccccc1Nc1nc(N)nc(COC(=O)c2nn(C)c(=O)c3ccccc23)n1,3805
COCCNc1nc(Nc2ccc(Cl)cc2F)c2sccc2n1,3608
O=C(O)C1CCCCN1c1ccccc1[N+](=O)[O-] (centres undefined),4129
CCCCN1C(=O)C(CC(=O)NCc2cccs2)CC(C(=O)N(C)C)=C1C (centres undefined),3958
COc1ccc(-n2nnnc2C(c2cccc(OC)c2OC)N2CCC(n3c(=O)[nH]c4ccccc43)CC2)cc1 (centres undefined),5527
COc1ccc(C(=O)N2CCc3ccccc3C2)cc1S(=O)(=O)N1CCCC1,3032
Cc1ccn2c(-c3csc(Nc4ccc(C(=O)O)cc4)n3)c(C)nc2c1,2830
CC(C)(C)CN1C(=O)C(=O)NC[C@@H]1CC1CCCCC1,4327
CC1(C(=O)NS(=O)(=O)c2ccc3c(c2)CCO3)CCN1C(=O)CCC1CCCC1 (centres undefined),2865
CCCCCCNC(=O)O[C@H]1Cn2c(=O)ccc(=O)n2[C@@H]2CN(S(=O)(=O)c3ccc(C)cc3)C[C@]12O,3659
S=C1NCc2cncnc2N1,6054
O=C(C[C@H]1C(=O)N(Cc2cccnc2)C[C@@H]1Cc1ccccc1)Nc1ccc(Br)cc1,3346
Cc1nc2ccc(NC(=O)C3(C)CCCN(C(C)C)C3)cc2o1 (centres undefined),4121
CCc1nc2ccc(C(=O)NCCCN3CCCC3=O)cn2c1N(C)Cc1ccc(OC)cc1,3919
COc1ccccc1CNC(=O)c1cc(-c2ccc(F)cc2C)n[nH]1,3457
CCn1nccc1NC(=O)c1csc([C@@H]2C[C@H](O)[C@@H](CO)O2)n1,3640
COC(=O)Cc1ccc(OC2(C)CCN(Cc3ccc4c(c3)OCCO4)C2)cc1 (centres undefined),2973
CC(=O)c1cccc(-c2ccnc3c2CC(C(=O)Nc2cccc(NS(C)(=O)=O)c2)O3)c1 (centres undefined),3590
CC1(C(=O)NS(=O)(=O)c2ccc3c(c2)CCO3)CCN1C(=O)COc1ccc(Cl)cc1 (centres undefined),3520
CCCNC(=O)C1(C)CCN(Cc2ccc(OC)c3ccccc23)C1 (centres undefined),3468
O=C(NCc1ccccc1)OC1CC2CC1[C@H]1CCCCN1C2=O (some centres undefined),4169
O=C1NC(Cc2ccc(O)cc2)c2nc3ccc(F)cc3c(=O)n2-c2ncccc21 (centres undefined),3700
Cc1c(C(=O)NCc2ccc(C(F)(F)F)cc2)sc(=O)n1Cc1cccc(F)c1,5407
COc1ccc(C(=O)COC(=O)C2COc3ccccc3O2)c(OC)c1 (centres undefined),3417
COc1ccc2nc3n(c(=O)c2c1)-c1ncccc1C(=O)NC3C (centres undefined),3475
CN(C)CCNC(=O)c1cccc(-c2cnc3c(NC=O)cc(-c4ccc(C(=O)N5CCOCC5)cc4)cn23)c1,3774
CCCNC(=O)C1(C)CCN(Cc2ccc(C(=O)OCC)cc2)C1 (centres undefined),3469
CC(NNC(=S)N1CCCCCC1)c1ccc2ccccc2n1 (centres undefined),3859
CC(O)(c1cccc(F)c1)c1nc(-c2ccccc2)cs1 (centres undefined),3035
CCCCCC(=O)N1C[C@@H](O)[C@H](n2cc(COC(=O)c3ccccc3)nn2)C[C@@H]1c1ccc(C)cc1,2943
COc1ccc(-c2cc(NC=O)c3ncc(-c4cccc(C(C)=O)c4)n3c2)cc1,3256
COC(=O)N1CCCCC1c1cc(C(=O)NCc2ccc(Cl)c(Cl)c2)no1 (centres undefined),4002
CC1(C(=O)Nc2ccccc2)Cc2c(-c3cccc(C(N)=O)c3)ccnc2O1 (centres undefined),4000
COc1cc2oc(=O)cc(CN3CCN(C(C)=O)CC3)c2cc1Cl,5594
CC(C)c1ccc(NC(=O)Nc2nnc([C@@H]3C[C@H](O)[C@@H](CO)O3)s2)cc1,2972
CN(C)CCCNc1nc2cc(-c3ccc4c(ccn4C)c3)sc2c(=O)n1C,4473
Cc1cc2oc(=O)cc(CN3CCN(c4ccccc4)CC3)c2cc1Cl,5861
CC(=O)Nc1cc(-c2ccccc2F)cn2c(-c3ccccc3)cnc12,3522
O=C1OCCC1=COCCCCOC=C1CCOC1=O,3701
C=CCNc1nc(NCc2cccc(OC)c2)c2sc(-c3ccccc3)cc2n1,4117
O=C(Nc1ccn(CCCN2CCN(c3ncccn3)CC2)c(=O)n1)OCc1ccccc1,3806
CCCCN1C(=O)C(CC(=O)NCCCCc2ccccc2)CC(C(=O)N2CCOCC2)=C1C (centres undefined),2955

# Laid out differently: entries from further up
Compound	Bead autofluor
Cc1c(C(=O)NCc2ccc(C(F)(F)F)cc2)sc(=O)n1Cc1cccc(F)c1	5407
COc1ccc(C(=O)COC(=O)C2COc3ccccc3O2)c(OC)c1 (centres undefined)	3417
COc1ccc2nc3n(c(=O)c2c1)-c1ncccc1C(=O)NC3C (centres undefined)	3475
CN(C)CCNC(=O)c1cccc(-c2cnc3c(NC=O)cc(-c4ccc(C(=O)N5CCOCC5)cc4)cn23)c1	3774
CCCNC(=O)C1(C)CCN(Cc2ccc(C(=O)OCC)cc2)C1 (centres undefined)	3469
CC(NNC(=S)N1CCCCCC1)c1ccc2ccccc2n1 (centres undefined)	3859
CC(O)(c1cccc(F)c1)c1nc(-c2ccccc2)cs1 (centres undefined)	3035
CCCCCC(=O)N1C[C@@H](O)[C@H](n2cc(COC(=O)c3ccccc3)nn2)C[C@@H]1c1ccc(C)cc1	2943
COc1ccc(-c2cc(NC=O)c3ncc(-c4cccc(C(C)=O)c4)n3c2)cc1	3256
COC(=O)N1CCCCC1c1cc(C(=O)NCc2ccc(Cl)c(Cl)c2)no1 (centres undefined)	4002
CC1(C(=O)Nc2ccccc2)Cc2c(-c3cccc(C(N)=O)c3)ccnc2O1 (centres undefined)	4000
COc1cc2oc(=O)cc(CN3CCN(C(C)=O)CC3)c2cc1Cl	5594
CC(C)c1ccc(NC(=O)Nc2nnc([C@@H]3C[C@H](O)[C@@H](CO)O3)s2)cc1	2972
CN(C)CCCNc1nc2cc(-c3ccc4c(ccn4C)c3)sc2c(=O)n1C	4473
Cc1cc2oc(=O)cc(CN3CCN(c4ccccc4)CC3)c2cc1Cl	5861
CC(=O)Nc1cc(-c2ccccc2F)cn2c(-c3ccccc3)cnc12	3522
O=C1OCCC1=COCCCCOC=C1CCOC1=O	3701

# Continuation:
SMILES,Bead autofluor
C[C@@H]1CN([C@H](C)CO)C(=O)CCCn2nncc2CO[C@@H]1CN(C)C(=O)CCC(F)(F)F,2922
COc1ccc(C(=O)N2CCCC(c3cc(C(=O)NCc4cccnc4)no3)C2)cc1 (centres undefined),2672
COc1ccc(-c2oc3c(c2C#CC(C)(C)O)C(OCCO)CC3)cc1 (centres undefined),6499
CC1=C(C(=O)N2CCOCC2)CC(CC(=O)NCCCCc2ccccc2)C(=O)N1Cc1ccc(C(C)(C)C)cc1 (centres undefined),2980
Cc1cc(Br)cn2c(Cc3ccsc3)c(-c3ccccc3)nc12,6117
Cc1ccc(CNS(=O)(=O)c2ccc(-n3cccn3)cc2)cc1,3711
